NOMO-1 viab – NOMO-1 AML cell viability reduction, primary screen, STK33 inhibitor project, CellTiter-Glo luminescence | NOMO-1 AML viability, 72 h | inhibition, % (no concentration beside the values) | 37,000 tested, 7.5% active;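 active = most replicates above 80%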;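 also: wells of about 30 µL received 25 nL stock; 0% = median of vehicle wells and 100% = reference inhibitor level; the first replicate is given; inactives centre near 10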
The depositor's hits bear a star.

SMILES | NOMO-1 viab
C[C@@H]1CN([C@H](C)CO)C(=O)c2cccc(NC(=O)c3cnccn3)c2O[C@H]1CN(C)S(=O)(=O)c1ccccc1 | 8
CCOC(=S)Nc1ccc(I)cc1 | 36
CCOC(=O)c1oc(C(=O)OCC)c(O)c1O | -9
Cc1nn(C)c(C)c1CNC(=O)c1cc(-c2ccccc2Cl)nc2c(C)cccc12 | 22
CC(C)NC(=O)N(C)C[C@H]1Oc2ccc(NC(=O)CCN3CCOCC3)cc2CC(=O)N([C@H](C)CO)C[C@H]1C | -3
Cc1ccc(N(C(C)C(=O)Nc2ccc(F)c(Cl)c2)S(C)(=O)=O)cc1C (stereo unspecified) | 33
CCOC(=O)c1c(-c2ccccc2)csc1NC(=O)c1cccc(OC(C)=O)c1 | -7
C[C@H]1CN([C@@H](C)CO)C(=O)c2cccc(NC(=O)Nc3ccc4c(c3)OCO4)c2O[C@@H]1CN(C)Cc1ccccc1 | 55
C[C@@H]1CN([C@H](C)CO)C(=O)c2cccc(NS(=O)(=O)c3cccs3)c2O[C@@H]1CN(C)C(=O)Nc1cccc2ccccc12 | 11
C[C@H]1CN([C@@H](C)CO)C(=O)c2cc(NC(=O)Nc3ccc(F)cc3)ccc2O[C@@H]1CN(C)Cc1ccc(C(F)(F)F)cc1 | 14
C[C@H](CO)N1C[C@H](C)[C@H](CN(C)Cc2ccccc2)Oc2c(NS(=O)(=O)c3ccccc3)cccc2C1=O | -1
COC(=O)C1=C(Nc2ccc(OC(=O)c3cccc(C(F)(F)F)c3)cc2)CSC1 | 12
Cc1cc(I)ccc1NC(=O)CN(c1ccc(F)c(Cl)c1)S(C)(=O)=O | 23
CS(=O)(=O)N(CC(=O)Nc1ccc(F)cc1)c1cccc2ccccc12 | -3
Cc1sc2ncn(CC(=O)Nc3cc(C(F)(F)F)ccc3Cl)c(=O)c2c1-c1ccccc1 | 37
Cc1noc(C)c1NC(=O)N(C)C[C@H]1Oc2ccc(NS(=O)(=O)c3c(C)noc3C)cc2CC(=O)N([C@@H](C)CO)C[C@@H]1C | 15
O=C(CC1Sc2ncnn2C1=O)Nc1ccc(Cl)cc1 (stereo unspecified) | 107*
COc1ccc(OCc2nc3ccccc3n2Cc2ccccc2F)cc1 | 14
Cc1ccc(S(=O)(=O)N(C)C[C@H]2Oc3ccc(NC(=O)Nc4ccccc4)cc3CC(=O)N([C@H](C)CO)C[C@H]2C)cc1 | 39
Cc1ccc(-n2c(C)nnc2SCC(=O)Nc2cc(Cl)ccc2C)cc1 | 17
O=C(CSc1nc2ccccc2[nH]1)Nc1ccccc1N1CCOCC1 | -15
COc1ccc(NC(=O)N(C)C[C@H]2Oc3ccc(NC(=O)CCC(F)(F)F)cc3CC(=O)N([C@@H](C)CO)C[C@H]2C)cc1 | 12
S=C(c1nc2ccccc2[nH]1)N1CCOCC1 | 17
Cc1noc(C)c1NC(=O)Nc1cccc2c1O[C@H](CN(C)Cc1ccc(C(F)(F)F)cc1)[C@H](C)CN([C@H](C)CO)C2=O | 15
C[C@@H]1CN([C@H](C)CO)C(=O)Cc2cc(NC(=O)Nc3ccc(F)cc3)ccc2O[C@H]1CN(C)Cc1ccc(C(=O)O)cc1 | 14
Cc1nc(SCC(=O)c2ccccc2)c(C#N)c(-c2cccc(Cl)c2)c1C(=O)Nc1ccccc1 | 24
COc1ccc2nc(NC3=NC(c4ccccc4)CC(=O)N3)nc(C)c2c1 (stereo unspecified) | 34
S=c1[nH][n+]2c(-c3ccccc3)cc(-c3ccccc3)nc2s1 | 16
C[C@H](CO)N1C[C@H](C)[C@@H](CN(C)Cc2ccc(Oc3ccccc3)cc2)Oc2ccc(NS(=O)(=O)c3ccc(Cl)cc3)cc2C1=O | 36
CCOc1ccc(NC(=O)CSc2nc3ccccc3o2)cc1 | -3

3 entries already listed, sorted by number of heavy atoms, lowest first:
SMILES | NOMO-1 viab
COc1ccc2nc(NC3=NC(c4ccccc4)CC(=O)N3)nc(C)c2c1 (stereo unspecified) | 34
Cc1noc(C)c1NC(=O)Nc1cccc2c1O[C@H](CN(C)Cc1ccc(C(F)(F)F)cc1)[C@H](C)CN([C@H](C)CO)C2=O | 15
C[C@H](CO)N1C[C@H](C)[C@@H](CN(C)Cc2ccc(Oc3ccccc3)cc2)Oc2ccc(NS(=O)(=O)c3ccc(Cl)cc3)cc2C1=O | 36

The listing continues:
SMILES | NOMO-1 viab
O=C(Cn1cnc2scc(-c3ccccc3)c2c1=O)Nc1ccc(Oc2ccccc2)cc1 | 10
C[C@H]1CN([C@@H](C)CO)C(=O)c2cccc(NC(=O)Nc3ccccc3)c2O[C@@H]1CN(C)Cc1ccncc1 | -11
Cc1ccc(OCCSCc2nc3ccccc3[nH]2)cc1 | 40
CCOC(=O)c1c(NC(=S)Nc2cc(C)nn2-c2ccccc2)sc(C)c1C | -12
COc1ccc(NC(=O)Nc2ccc3c(c2)C(=O)N([C@H](C)CO)C[C@@H](C)[C@H](CN(C)Cc2ccccc2)O3)cc1 | 17
Cc1ccccc1-c1nc2cc(NC(=O)COc3ccc(Br)cc3)ccc2o1 | -2
C/C(=C\CCC1(C)C2CC3C(C2)C31C)C(=O)O (stereo unspecified) | -17
COc1ccc(NC(=O)Nc2ccc3c(c2)C(=O)N([C@H](C)CO)C[C@@H](C)[C@H](CN(C)Cc2ccc(-c4ccccc4)cc2)O3)cc1 | 119*
O=c1nc(Nc2ccc(OC(F)(F)F)cc2)oc2ccccc12 | -2
Cc1ccc(N(C(C)C(=O)Nc2ccccc2Cl)S(C)(=O)=O)cc1 (stereo unspecified) | -15
CS(=O)(=O)N(CC(=O)Nc1c(F)cccc1F)c1ccc(I)cc1 | 5
Cc1noc(C)c1S(=O)(=O)N(C)C[C@H]1Oc2ccc(NC(=O)Nc3ccc4c(c3)OCO4)cc2C(=O)N([C@@H](C)CO)C[C@H]1C | -18
CC(=O)c1c(C)n(-c2ccc(C)cc2)c2ccc(OC(=O)CN3C(=O)c4ccccc4C3=O)cc12 | 30
Cc1ccc(S(=O)(=O)N(C)C[C@@H]2OCCCC[C@@H](C)Oc3ccc(NC(=O)c4ccncc4)cc3C(=O)N([C@H](C)CO)C[C@@H]2C)cc1 | 2
C[C@H](CO)N1C[C@H](C)[C@H](CN(C)C(=O)Nc2ccc(F)cc2)Oc2ccc(NC(=O)Nc3ccccc3)cc2C1=O | 32
Cc1ccc(/C(C#N)=C/c2ccc(N(C)C)cc2)cc1 | 116*
C[C@@H]1CN([C@H](C)CO)C(=O)c2cc(NC(=O)Cn3cnnn3)ccc2O[C@@H]1CN(C)Cc1ccncc1 | 5
C[C@H](CO)N1C[C@H](C)[C@@H](CN(C)C(=O)NC2CCCCC2)Oc2c(cccc2N(C)C)C1=O | -9
COc1ccccc1-c1cc(-c2ccccc2)nc(SCC(N)=O)c1C#N | 39
O=c1cc(CSc2ccc(Cl)cc2)nc(N2CCN(Cc3ccc4c(c3)OCO4)CC2)[nH]1 | 11
CNC[C@@H]1Oc2c(NC(=O)Nc3ccc(OC)cc3)cccc2C(=O)N([C@@H](C)CO)C[C@H]1C | -1
C/C(=C(/CCO)SSCC1CCCO1)N(C=O)Cc1cnc(C)nc1N (stereo unspecified) | 30
C[C@H](CO)N1C[C@H](C)[C@H](CN(C)S(C)(=O)=O)Oc2ccc(NC(=O)Nc3ccc(F)cc3)cc2CC1=O | 17
CCOc1cc(C)c(Cl)cc1S(=O)(=O)n1cnc2ccccc21 | 23
Cc1nnc(SCc2cc(=O)[nH]c(Nc3nc(C)c4ccccc4n3)n2)s1 | 3
C[C@H]1CN([C@@H](C)CO)C(=O)c2cc(NC(=O)Nc3cccc4ccccc34)ccc2O[C@@H]1CN(C)S(=O)(=O)c1cn(C)cn1 | -15
CC(=O)NC1CCCCc2sccc21 (stereo unspecified) | -5
C[C@@H]1CN([C@@H](C)CO)C(=O)c2cccc(NS(=O)(=O)c3ccc(F)cc3)c2O[C@@H]1CN(C)S(=O)(=O)c1ccc(Cl)cc1 | 39
C[C@@H]1CN([C@H](C)CO)C(=O)c2cc(NS(=O)(=O)c3ccccc3)ccc2O[C@@H]1CN(C)S(=O)(=O)c1cn(C)cn1 | -1
COC(=O)c1c(NC(=O)CN2C(=O)c3ccccc3C2=O)sc(C)c1-c1ccccc1 | 5
C[C@H]1CN([C@@H](C)CO)C(=O)c2cccc(NS(=O)(=O)c3cccs3)c2O[C@@H]1CN(C)Cc1ccc(Oc2ccccc2)cc1 | 26
C[C@H]1CN([C@@H](C)CO)C(=O)c2cccc(NC(=O)c3ccncc3)c2O[C@H]1CN(C)S(=O)(=O)c1ccc(Cl)cc1 | 14
O=C(CSc1nnc(-c2cccc([N+](=O)[O-])c2)o1)c1ccc2c(c1)OCCO2 | 38
COc1ccc(NC(=O)Nc2ccc3c(c2)C(=O)N([C@@H](C)CO)C[C@H](C)[C@@H](CN(C)C(=O)NC2CCCCC2)O3)cc1 | -3
COc1ccc(NC(=O)N(C)C[C@H]2Oc3ccc(NC(=O)Cn4cnnn4)cc3C(=O)N([C@@H](C)CO)C[C@H]2C)cc1 | 12
C[C@@H]1CN([C@H](C)CO)C(=O)Cc2cc(NC(=O)C3CCCCC3)ccc2O[C@H]1CN(C)S(=O)(=O)c1ccccc1 | 3
C=C(C)C(=O)O[C@H]1C[C@@]2(C)OC(=CC2=O)/C(COC(C)=O)=C\[C@H]2OC(=O)C(=C)C12 (stereo partly specified) | 120*
C[C@@H]1CN([C@H](C)CO)C(=O)c2cc(NC(=O)CCCN(C)C)ccc2O[C@@H]1CN(C)CC1CCCCC1 | 11
Cc1noc(C)c1NC(=O)Nc1cccc2c1O[C@H](CN(C)Cc1ccc(-c3ccccc3)cc1)[C@H](C)CN([C@@H](C)CO)C2=O | -4
C[C@@H]1CN([C@H](C)CO)C(=O)Cc2cc(NC(=O)Nc3ccccc3)ccc2O[C@H]1CN(C)C(=O)Nc1ccc(C(F)(F)F)cc1 | 30
COc1ccc(S(=O)(=O)N(C)CC(=O)Nc2cc(Cl)cc(Cl)c2)cc1 | 24
N#Cc1c(C(F)(F)F)cc(-c2cccs2)nc1SCC(=O)Nc1ccc2ccccc2c1 | -19
Cc1ccc(S(=O)(=O)Nc2cccc3c2O[C@@H](CN(C)S(=O)(=O)c2cn(C)cn2)[C@H](C)CN([C@H](C)CO)C3=O)cc1 | 3
CC(C)NC(=O)Nc1cccc2c1O[C@H](CN(C)S(=O)(=O)c1cccs1)[C@@H](C)CN([C@H](C)CO)C2=O | -9
C[C@H]1CN([C@@H](C)CO)C(=O)Cc2cc(NC(=O)CCC(F)(F)F)ccc2O[C@@H]1CN(C)S(C)(=O)=O | 8
COc1ccc(S(=O)(=O)N(CC(=O)Nc2ccc3c(c2)OCCO3)C2CCCCC2)cc1Cl | 8
C[C@H](CO)N1C[C@H](C)[C@H](CN(C)Cc2ccc(Oc3ccccc3)cc2)Oc2ccc(NS(C)(=O)=O)cc2C1=O | 38
Cc1ccc(NC(=O)CSc2nnc(-c3cccnc3)s2)cc1 | -4
C[C@H]1CN([C@@H](C)CO)C(=O)c2cc(NC(=O)Nc3ccc(F)cc3)ccc2O[C@H]1CN(C)S(C)(=O)=O | -15
C[C@@H]1CN([C@H](C)CO)C(=O)c2cc(NS(=O)(=O)c3cn(C)cn3)ccc2O[C@H]1CN(C)C(=O)Nc1ccc(C(F)(F)F)cc1 | 1
Next section
SMILES | NOMO-1 viab
O=C(CSc1nnc(-c2ccccc2Br)o1)c1ccc2c(c1)OCCO2 | 23
S=C1NC2=C(CCc3ccccc32)C(c2ccccc2)N1 (stereo unspecified) | 13
CNC[C@H]1Oc2ccc(NC(=O)CCCN(C)C)cc2C(=O)N([C@H](C)CO)C[C@H]1C | 17
O=C(CSc1nc(SCC(=O)c2ccccc2)c2ccccc2n1)c1ccccc1 | 41
C[C@H]1CN([C@@H](C)CO)C(=O)Cc2cc(NS(C)(=O)=O)ccc2O[C@@H]1CN(C)C | 9
CC(=O)Nc1ccc(NC(=O)CN(C)S(=O)(=O)c2ccccc2)cc1 | 5
C[C@@H]1CN([C@@H](C)CO)C(=O)c2cccc(NC(=O)NC3CCCCC3)c2O[C@H]1CN(C)C(=O)Nc1ccccc1 | -5
C[C@H](CO)N1C[C@H](C)[C@H](CN(C)S(=O)(=O)c2ccc(Cl)cc2)Oc2ccc(NS(C)(=O)=O)cc2CC1=O | -18
COc1ccc(NC(=O)Nc2ccc3c(c2)C(=O)N([C@H](C)CO)C[C@H](C)[C@H](CN(C)C(=O)Nc2ccccc2)OCCCC[C@@H](C)O3)cc1 | -12
C[C@H]1CN([C@@H](C)CO)C(=O)c2cc(NS(=O)(=O)c3cccs3)ccc2O[C@H]1CN(C)S(=O)(=O)c1ccccc1 | 31

Some of these compounds in order of heavy-atom count, ascending.
SMILES | NOMO-1 viab
S=C1NC2=C(CCc3ccccc32)C(c2ccccc2)N1 (stereo unspecified) | 13
Cc1ccc(NC(=O)CSc2nnc(-c3cccnc3)s2)cc1 | -4
CC(=O)Nc1ccc(NC(=O)CN(C)S(=O)(=O)c2ccccc2)cc1 | 5
O=C(CSc1nnc(-c2ccccc2Br)o1)c1ccc2c(c1)OCCO2 | 23
C[C@H]1CN([C@@H](C)CO)C(=O)Cc2cc(NS(C)(=O)=O)ccc2O[C@@H]1CN(C)C | 9
CNC[C@H]1Oc2ccc(NC(=O)CCCN(C)C)cc2C(=O)N([C@H](C)CO)C[C@H]1C | 17
COc1ccc(S(=O)(=O)N(CC(=O)Nc2ccc3c(c2)OCCO3)C2CCCCC2)cc1Cl | 8
C[C@H]1CN([C@@H](C)CO)C(=O)Cc2cc(NC(=O)CCC(F)(F)F)ccc2O[C@@H]1CN(C)S(C)(=O)=O | 8
C[C@H]1CN([C@@H](C)CO)C(=O)c2cc(NC(=O)Nc3ccc(F)cc3)ccc2O[C@H]1CN(C)S(C)(=O)=O | -15
C[C@H](CO)N1C[C@H](C)[C@H](CN(C)S(=O)(=O)c2ccc(Cl)cc2)Oc2ccc(NS(C)(=O)=O)cc2CC1=O | -18
C[C@H]1CN([C@@H](C)CO)C(=O)c2cc(NS(=O)(=O)c3cccs3)ccc2O[C@H]1CN(C)S(=O)(=O)c1ccccc1 | 31
C[C@@H]1CN([C@H](C)CO)C(=O)c2cc(NS(=O)(=O)c3cn(C)cn3)ccc2O[C@H]1CN(C)C(=O)Nc1ccc(C(F)(F)F)cc1 | 1
COc1ccc(NC(=O)Nc2ccc3c(c2)C(=O)N([C@H](C)CO)C[C@H](C)[C@H](CN(C)C(=O)Nc2ccccc2)OCCCC[C@@H](C)O3)cc1 | -12

Assay outcomes: PubChem, Broad Institute

The list is partial (hit frequency here may not be typical).
